Screening data (PubChem BioAssay)
MT1-MMP act inh = blockers of MT1-MMP proenzyme processing, primary screen, HT1080 RFP-PRO-GFP cells, GFP/RFP fluorescence. 0.061% of 360,000 active. Matrix metalloproteinase-14 (Homo sapiens), P50281. GFP/RFP ratio fluorescence, overnight; percent of plate control window, DMSO zero. AID 651647, 2012. GFP/RFP ratio change, % at 20 µM;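 active = GFP/RFP ratio change of at least 30% with cell ATP level not reduced by more than half and red fluorescence within 50% of control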; note: strong numbers were not always called active
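Test system: HT1080 RFP-PRO-GFP cells; Benchmarks: DMSO and RFP-L50D-GFP cell wells; Timing: cells overnight before dosing, compound overnight, 37 °C, 5% CO2; Compound: one 20 µM compound dose with 1% DMSO; Read-out: GFP/RFP fluorescence ratio.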
CSC inhib = cancer stem cell viability inhibitors, primary screen, luminescence; cancer stem cell-like cells viability; inhibition, % at 7.5 µM; 1.1% of 300,000 active;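 active = mean at 75% or more and at least half the replicates too; tested in HMLE shEcad cells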;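 note: 0% = median of negative and 100% = median of positive control wells; the first replicate is given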
eIF4H FP inh = human eIF4H binding inhibitors, primary screen, translation initiation inhibitor project, biochemical, uHTS, fluorescence polarization | Eukaryotic translation initiation factor 4H (Homo sapiens), Q15056 | eIF4H fluorescence polarization binding assay | inhibition, % at 35 µM | 0.94% of 290,000 active;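 active = 50% or more with normal probe brightness, or confirmed in later tests; about a fifth of its hits are not listed in these tables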;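 note: calls also rest on retests at 20 µM and on dose response follow-up; 0% = protein and probe with vehicle and 100% = probe without protein; strong numbers were not always called active; many hits fall short of the cut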
Yeast UUG start = modulators of yeast start codon fidelity, primary screen, whole organism, S. cerevisiae, single point, plate reader; S. cerevisiae UUG-firefly luciferase reporter, luminescence/redox ratio; activity score, % at 18.7 µM; 0.13% of 350,000 active; AID 602363, 2012;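 active = replicate mean at a twofold rise or more, about +100% in these data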;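 note: firefly luciferase made from a UUG start codon reports start codon fidelity; reporter light over untreated wells divided by growth signal over untreated wells; some hits fall short of that in this replicate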
Env fusion inh = inhibitors of HIV-1 Env-driven cell-cell fusion, primary screen, HeLa-JRFL effector, CEM21 target cells, luciferase | 1.1% of 360,000 active | AID 651610, 2012 | inhibition, % at 12.3 µM;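 active = mean replicate inhibition score of at least 50 and every replicate individually at or above 50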;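 note: 0% = plate neutral controls and 100% = maraviroc near 300 nM; one replicate is shown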
PABP FP inh = PABP poly(A) RNA binding inhibitors, primary screen, biochemical, fluorescence polarization, uHTS; Polyadenylate-binding protein 1 (Homo sapiens), P11940; inhibition, % at 35 µM; 1% of 290,000 active; AID 2014, 2009;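 active = 50% or more with normal probe brightness, or confirmed in later tests; about a fifth of its hits are not listed in these tables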;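 note: calls also rest on retests at 20 µM and on dose response follow-up; controls were probe without protein and protein plus probe with vehicle; some compounds called inactive have numbers as strong as hits; many hits fall short of the cut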
Rce1 inhib = yeast Rce1p protease inhibitors, primary screen, biochemical, fluorescence, cell-free homogeneous; 0.27% of 290,000 active; calls only; AID 2563, 2010; CAAX prenyl protease 2 (Saccharomyces cerevisiae (strain ATCC 204508 / S288c)), Q03530; yeast membranes, quenched prenylated peptide cleavage fluorescence;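 active = fall in fluorescence gain of 50% or more versus controls, with final raw signal at or below 3038400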;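 note: plate controls were neutral control wells for no effect and wells lacking membranes for full effect; tested at 10 µM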
Target sequence (Q03530 whole entry, looked up): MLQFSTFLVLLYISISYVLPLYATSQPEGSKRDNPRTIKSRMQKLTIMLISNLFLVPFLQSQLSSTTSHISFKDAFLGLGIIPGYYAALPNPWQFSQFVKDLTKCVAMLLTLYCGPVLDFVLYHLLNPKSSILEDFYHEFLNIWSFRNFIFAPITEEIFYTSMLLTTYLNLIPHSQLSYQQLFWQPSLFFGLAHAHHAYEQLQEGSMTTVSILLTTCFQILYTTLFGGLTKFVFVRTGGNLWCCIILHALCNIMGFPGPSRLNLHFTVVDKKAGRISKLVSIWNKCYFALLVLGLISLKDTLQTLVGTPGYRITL
eIF4H FP inh retest = recorded beside eIF4H FP inh, whose call it bears; inhibition, %; compound at 20 µM; confirmation average;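 mean of two retest wells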
PABP FP inh retest = further read-out of PABP FP inh, marked with its call; inhibition, %; compound at 20 µM; confirmation repeats;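 mean of two retest wells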
MT1-MMP act inh RFP = also measured in MT1-MMP act inh; calls as there; RFP signal change, %; measured here: RFP expression control read;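 0 = vehicle wells; hits needed this value within 50% of zero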
The depositor's hits bear a star; i = inactive; / = not tested or not shown.

SMILES	MT1-MMP act inh	MT1-MMP act inh RFP	CSC inhib	eIF4H FP inh	Yeast UUG start	Env fusion inh	PABP FP inh	Rce1 inhib	others
O=C(C1CCN(Cc2cc(Cl)ccc2O)CC1)N1CCN(Cc2ccccc2)CC1	2	0	-8	-1	-24	19	7	i
CCCCc1nc2cc(C(=O)N3CCC(OC)CC3)ccc2o1	-5	-1	6	-11	-25	-7	1	i
CNc1c(NS(=O)(=O)c2ccc3c(c2)CCCC3)c(=O)oc2ccccc12	-1	-2	-35	-4	-10	-3	1	i
Cc1ccc(NC(=S)NCCN2CCOCC2)cc1	3	5	-2	-12	/	/	-13	i
Cc1ccc(NC(=O)CCc2c(C)nc3ncnn3c2C)cc1	4	4	-1	-4	-5	-32	-10	i
C[N+]1(C2CCC3CCC2C3O)CCCC1 (centres undefined)	-3	8	-12	0	2	/	-11	i
O=C(CSc1nc2ccccc2n1CCc1ccccc1)N1CCOCC1	4	7	-5	-5	/	22	9	i
Cn1nc(-c2ccccc2)c(C(=O)NC(C(=O)O)c2ccccc2)c1Cl (centres undefined)	-3	1	-11	-4	/	1	5	i
CN(C(=O)c1ccc(NC(=O)Cc2cccc(NC(=O)C3CCCN(C(=O)C4CC4)C3)c2)cc1)C1CCCC1 (centres undefined)	5	-3	-4	/	16	-12	/	/
CCCCOCCCNCC(=O)Nc1ccc(S(N)(=O)=O)cc1	1	2	-18	11	/	-4	4	i
Cc1ccc(C)c(C(=O)OCC(=O)N(C)c2ccccc2)c1	-2	2	-16	-1	4	-3	-4	i
COC(=O)c1ccccc1COc1cccn2c(N(C)Cc3cccs3)c(C)nc12	5	-25	/	/	-16	-92	/	/
O=c1cc(-c2ccccc2Cl)c2c([nH]1)CCC2	-6	0	-2	23	-6	5	-16	i
CCOC(=O)c1c(/N=C/N(C)C)sc(/C=N/Nc2ccccc2)c1-c1ccccc1	-5	-3	15	-5	/	-34	2	i
Oc1ccc(Nc2nc(-c3cccnc3)cs2)cc1	4	-5	11	-6	-16	/	13	i
COc1cccc(-c2csc(NC(=O)C3CC3)n2)c1	0	-1	4	6	-13	-44	0	i
CNC(=O)N(O)C1N(c2ccccc2)C(=S)SC1(C)C (centres undefined)	-4	1	5	5	-9	12	5	i
O=C(CCS(=O)(=O)c1ccc(Br)cc1)NCCc1ccccc1	0	-1	-13	82	25	-16	24	i	eIF4H FP inh retest=48;PABP FP inh retest=13
CCCCc1oc2ccccc2c1C(=O)c1cc(I)c(OCCN(CC)CC)c(I)c1	1	-2	89*	-7	-10	5	-6	i
O=C(C1=C(O)C(=O)N(Cc2cccnc2)C1c1ccccn1)c1cccs1 (centres undefined)	-3	2	8	-6	/	6	28	i
O=S(=O)(Cc1cc(Oc2ccccc2)nc(-c2ccccc2)n1)c1ccccc1	-8	-8	29	9	-9	/	-8	i
O=C(Nc1ccc2oc(-c3ccncc3)nc2c1)c1ccccc1	7	2	7	1	-4	5	6	i
CCCCNC(=O)C1C2C=CC3(CN(Cc4ccccc4Cl)C(=O)C13)O2 (centres undefined)	-1	-3	-9	-5	-2	-81	-13	i
CCc1cc2c(=O)[nH]cnc2s1	-1	4	4	1	-1	/	-5	i
CCCn1c(=NC(=O)c2ccco2)c(C(=O)OCC)cc2c(=O)n3ccccc3nc21	4	3	12	9	14	/	2	i

A section from further up, for reference:
SMILES	MT1-MMP act inh	MT1-MMP act inh RFP	CSC inhib	eIF4H FP inh	Yeast UUG start	Env fusion inh	PABP FP inh	Rce1 inhib	others
CCCCc1oc2ccccc2c1C(=O)c1cc(I)c(OCCN(CC)CC)c(I)c1	1	-2	89*	-7	-10	5	-6	i
O=C(C1=C(O)C(=O)N(Cc2cccnc2)C1c1ccccn1)c1cccs1 (centres undefined)	-3	2	8	-6	/	6	28	i
O=S(=O)(Cc1cc(Oc2ccccc2)nc(-c2ccccc2)n1)c1ccccc1	-8	-8	29	9	-9	/	-8	i
O=C(Nc1ccc2oc(-c3ccncc3)nc2c1)c1ccccc1	7	2	7	1	-4	5	6	i
CCCCNC(=O)C1C2C=CC3(CN(Cc4ccccc4Cl)C(=O)C13)O2 (centres undefined)	-1	-3	-9	-5	-2	-81	-13	i
CCc1cc2c(=O)[nH]cnc2s1	-1	4	4	1	-1	/	-5	i
CCCn1c(=NC(=O)c2ccco2)c(C(=O)OCC)cc2c(=O)n3ccccc3nc21	4	3	12	9	14	/	2	i

4 entries picked at random from those above, as already listed:
SMILES	MT1-MMP act inh	MT1-MMP act inh RFP	CSC inhib	eIF4H FP inh	Yeast UUG start	Env fusion inh	PABP FP inh	Rce1 inhib	others
CCCn1c(=NC(=O)c2ccco2)c(C(=O)OCC)cc2c(=O)n3ccccc3nc21	4	3	12	9	14	/	2	i
CNc1c(NS(=O)(=O)c2ccc3c(c2)CCCC3)c(=O)oc2ccccc12	-1	-2	-35	-4	-10	-3	1	i
Cn1nc(-c2ccccc2)c(C(=O)NC(C(=O)O)c2ccccc2)c1Cl (centres undefined)	-3	1	-11	-4	/	1	5	i
CCCCOCCCNCC(=O)Nc1ccc(S(N)(=O)=O)cc1	1	2	-18	11	/	-4	4	i

Remaining list, next part.
SMILES	MT1-MMP act inh	MT1-MMP act inh RFP	CSC inhib	eIF4H FP inh	Yeast UUG start	Env fusion inh	PABP FP inh	Rce1 inhib	others
Nc1nc2n(n1)C(=O)CC(c1ccccc1[N+](=O)[O-])N2 (centres undefined)	2	4	-9	0	/	-4	-1	i
C=CCNC(=O)C12CCC(C)(C(=O)C1Br)C2(C)C (centres undefined)	0	3	-2	0	-8	29	8	i
Cc1cc(C)n(CC(=O)N/N=C/c2ccco2)n1	-6	-1	-11	-8	-19	-7	-14	i
O=C(N/N=C/c1cc([N+](=O)[O-])ccc1O)c1cccc(N2CCCC2=O)c1	-2	-4	-8	14	1	12	8	i
COc1ccc(C)cc1S(=O)(=O)N1CCN(C(=O)c2ncoc2-c2cccc(F)c2)CC1	-2	3	8	2	6	9	4	i
CC(C)CCNC(=O)c1ccc(Cn2c(=S)[nH]c3ccccc3c2=O)cc1	-3	-4	/	-6	-12	14	3	i
CCCCSc1nc(C)c(CC(=O)OC)c(=O)[nH]1	-1	-1	-15	4	15	-130	1	/
Clc1ccc(-c2cn3nc4c(nc3n2)CCCC4)cc1	-8	-1	-13	23	/	/	51	i	eIF4H FP inh retest=-6;PABP FP inh retest=0
CS(=O)(=O)N(CCc1ccccc1)CC(=O)N1CCN(c2ccc(F)cc2)CC1	0	-6	-19	4	0	/	-5	i
COc1ccccc1NS(=O)(=O)c1cccc(C(=O)N(C)Cc2cccs2)c1	-5	-2	/	12	3	5	7	i
CS(=O)(=O)c1cnc2c(-c3ccc(F)cc3)cnn2c1N	7	-1	-8	-2	-20	-333	-5	i
COc1ccc(CC(=O)NNC2=Nc3cccc4cccc2c34)cc1	-7	-9	-6	19	-9	1	-16	i
Cc1ccc(S(=O)(=O)N(C)C)cc1NC(=O)COC(=O)/C(=C/c1ccc(F)cc1)c1cccs1	-5	-13	3	-3	/	3	-1	i
O=C(COC(=O)c1ccccc1SCC(=O)N1CCCC1)Nc1ccc(OC(F)F)cc1	4	-3	-5	/	-6	-6	/	i
CCOC(=O)C1(Cc2cccc(F)c2)CCN(C2CCOCC2)CC1	1	5	17	-9	-6	14	-5	i
CCOC(=O)c1ccccc1NC(=O)C1CCCO1 (centres undefined)	-1	7	4	4	-7	3	4	i
CCN1CCN(CCC(=O)Nc2ccccc2)CC1	5	1	-1	14	-1	-14	13	i
CCCCC(=O)Nc1ccc(C(=O)Nc2ccc(S(=O)(=O)Nc3ccc(C)cc3)cc2)cc1	6	1	-5	-3	/	14	1	i
CCN(C(=O)c1c(-c2ccccc2Cl)noc1C)C1CCCCC1	-4	0	-3	-10	2	11	-2	i
Cc1ccc(-c2ccc(=O)n(Cc3cc(C)ccc3C)n2)cc1	4	-8	25	11	-26	9	20	i
COCOCCn1cc(CN2CCS(=O)(=O)N(Cc3ccc(-c4ccc(C)cc4)cc3)C(C)C2=O)nn1 (centres undefined)	1	-4	/	/	-11	-5	/	/
Cc1ccccc1NC(=O)CSc1n[nH]c(-c2ccco2)n1	1	0	1	0	-12	5	2	i
Cc1ccc(NC(=O)CN2C(=O)S/C(=C\c3ccccn3)C2=O)cc1C	-5	2	-14	-7	-13	-17	12	i
O=C(NC1CC1)C1CCN(c2ncccn2)CC1	1	6	-4	7	-18	-17	1	i
CC1CC(C)CN(C(=O)C(Cc2ccccc2)NC(=O)c2ccccc2)C1 (centres undefined)	1	0	-13	/	/	12	/	i
SMILES	MT1-MMP act inh	MT1-MMP act inh RFP	CSC inhib	eIF4H FP inh	Yeast UUG start	Env fusion inh	PABP FP inh	Rce1 inhib	others
CCOC(=O)C[N+](C)(C)CCOC1CC2CCC1(C)C2(C)C (centres undefined)	3	0	-2	2	/	-16	0	i
O=C(O)c1ccccc1NCc1ccsc1	3	1	-11	-7	-6	8	4	i
COc1cccc(-c2nnc(NC(=O)c3ccc(S(=O)(=O)N4CC(C)OC(C)C4)cc3)o2)c1 (centres undefined)	7	-8	19	10	-17	55*	-3	i
CN(Cc1ccco1)C(=O)C1CCC(=O)N1Cc1ccc(F)cc1 (centres undefined)	-1	4	7	-2	-6	/	-5	i
Cn1cnnc1SC1CCCCC1NS(=O)(=O)c1ccccc1 (centres undefined)	3	5	7	-12	-13	-2	-11	i
COc1ccc(-n2c(SCC(=O)C(C)(C)C)nc3c(sc(=S)n3-c3ccccc3)c2=O)c(OC)c1	-4	-6	4	-2	-4	17	-2	i
Cc1csc(NC(=O)CN2C(=O)COc3ccc(Cl)cc32)n1	-5	-3	7	/	-13	-12	/	i
COC(=O)c1nc2ccccc2s1	4	4	20	-5	-13	-33	1	i
CCCc1cc2c(=O)c(-c3ccc4c(c3)OCCO4)coc2cc1OS(C)(=O)=O	2	-7	52	5	/	-15	12	i
COc1ccccc1/C=C/C(=O)NCC(=O)N=Nc1c(O)[nH]c2ccccc12	-12	0	-10	/	-14	3	/	i
CC(=C/c1ccc(C(C)C)cc1)/C=N/NC(=O)CSc1ccccn1	-3	-1	-10	-5	/	-70	-7	i
CCOC(=O)c1cc(C#N)c(SCC(=O)OC)[nH]c1=O	5	2	9	-8	/	6	3	/
O=C(CCNC(=O)c1ccccc1Cl)Nc1cc(S(=O)(=O)N2CCOCC2)ccc1N1CCCC1	-2	-2	-3	0	6	9	-4	i
Cn1c(=O)c2c(nc(CN3CCN(c4ccccc4)CC3)n2CCc2ccccc2)n(C)c1=O	-1	-5	/	/	4	/	/	i
COc1ccc(OCC(=O)Nc2cccc(S(=O)(=O)N(C)c3ccccc3)c2)c([N+](=O)[O-])c1	1	-5	/	/	-1	-7	/	/
CC(C)Oc1ccc(-c2cc(C(=O)NCCN3CCOCC3)c3ccccc3n2)cc1	-1	3	1	-4	-2	/	-15	i
